Screening results as filed in PubChem.
Beta2AR agonist – beta2AR agonists driving receptor internalization, primary screen, cell-based, FAP fluorogen, flow cytometry; AID 504454, 2011; 340,000 compounds, 0.43% hits; Beta-2 adrenergic receptor (Homo sapiens), P07550; response, % (concentration not given with the values); Am2.2-beta2AR cells; reference of the scale not given here;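 active = response above a set limit, near 3 SD of response in nonfluorescent compounds, cut at about 42% in these data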;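 note: stock transfer was 100 nL into about 11 µL; a reference agonist was the positive control; negative values mostly stem from fluorescent compounds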
HNF4A DNA FP – change in binding of human HNF4A to DNA, primary screen, biochemical, fluorescence polarization, FITC-DNA. Hepatocyte nuclear factor 4-alpha (Homo sapiens), P41235. 360,000 compounds, 0.3% hits. AID 1224865, 2016. activity change, % at 10 µM. 1 h; in the data active = activity change above about 30%, passing the limit was not always enough;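 note: controls were the assay level and a saturating level of protein; the project sought stronger binding though the title names inhibitors; some compounds called inactive have numbers as strong as hits; positive values seem to mean higher polarization but the record does not say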
LANA-H2A inh – blockers of LANA interaction with H2A/H2B – biochemical, FP readout, HTS, primary screen; cell-free LANA-H2A/H2B peptide, fluorescence polarization; inhibition, % (test concentration not listed); 320,000 compounds, 0.6% hits; AID 2629, 2010; in the data active = inhibition mostly above about 10%, no sharp cut-off; inactive = mostly below about 6.7%;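 note: stock transfer was 7.5 nL into about 10 µL; 0% = median of vehicle wells and 100% = median of positive control wells; one replicate is shown; the record names a cut of 25% in any replicate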
Target sequence (Q9QR71 whole entry, looked up): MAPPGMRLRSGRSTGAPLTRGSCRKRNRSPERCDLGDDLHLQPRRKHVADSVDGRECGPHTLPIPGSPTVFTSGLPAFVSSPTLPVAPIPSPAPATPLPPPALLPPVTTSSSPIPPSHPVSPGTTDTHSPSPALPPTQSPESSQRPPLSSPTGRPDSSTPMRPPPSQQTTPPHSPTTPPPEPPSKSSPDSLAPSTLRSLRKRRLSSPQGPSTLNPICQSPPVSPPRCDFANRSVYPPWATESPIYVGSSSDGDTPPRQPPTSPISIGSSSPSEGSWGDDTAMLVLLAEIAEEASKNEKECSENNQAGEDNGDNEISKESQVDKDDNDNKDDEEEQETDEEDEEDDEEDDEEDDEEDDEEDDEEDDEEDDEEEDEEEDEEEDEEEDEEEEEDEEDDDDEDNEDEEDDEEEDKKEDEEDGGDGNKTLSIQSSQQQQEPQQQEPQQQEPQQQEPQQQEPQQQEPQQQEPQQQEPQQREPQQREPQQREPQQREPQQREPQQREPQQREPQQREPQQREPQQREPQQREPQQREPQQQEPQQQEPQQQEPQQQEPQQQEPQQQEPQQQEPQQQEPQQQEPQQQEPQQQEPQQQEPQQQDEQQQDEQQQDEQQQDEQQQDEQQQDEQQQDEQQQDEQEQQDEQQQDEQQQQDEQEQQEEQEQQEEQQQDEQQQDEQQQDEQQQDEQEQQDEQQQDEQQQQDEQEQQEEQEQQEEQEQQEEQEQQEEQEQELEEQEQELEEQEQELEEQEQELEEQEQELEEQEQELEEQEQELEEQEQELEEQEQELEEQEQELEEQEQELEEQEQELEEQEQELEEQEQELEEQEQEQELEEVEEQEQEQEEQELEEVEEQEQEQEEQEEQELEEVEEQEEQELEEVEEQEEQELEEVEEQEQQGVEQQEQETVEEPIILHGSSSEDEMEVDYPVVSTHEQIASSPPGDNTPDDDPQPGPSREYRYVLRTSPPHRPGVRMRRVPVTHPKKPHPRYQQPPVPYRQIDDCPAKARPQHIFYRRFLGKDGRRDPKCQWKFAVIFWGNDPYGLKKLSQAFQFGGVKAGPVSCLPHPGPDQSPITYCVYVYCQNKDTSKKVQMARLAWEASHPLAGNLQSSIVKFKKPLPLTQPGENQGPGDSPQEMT
A1 inh – caspase 3/7 activation in MEF A1-2A-BIM cells, primary screen, A1 inhibitor project, cell-based, luminescence, HTS; Caspase-Glo 3/7 luminescence, 3 h; percent of clofoctol response, vehicle zero; caspase activation, % (test concentration not listed); 330,000 compounds, 0.066% hits; AID 2462, 2010;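 active = over half of replicate activation scores above 10%, or exactly half above 10 with the replicate mean above 10; inconclusive = replicate mean below 10 yet half the replicates above 10; inactive = over half of replicates below 10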;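 note: wells of about 30 µL received 50 nL stock; many hits fall short of the cut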
Vif TR-FRET – inhibitors of Vif binding to APOBEC3G peptide, primary screen, biochemical, TR-FRET, GST-Vif 1-94, biotin-A3G peptide, dose response retest (AID 1117319). 260,000 compounds, 0.57% hits. inhibition, %, or IC50 in µM where a hit was titrated. TR-FRET GST-Vif / biotin-A3G peptide binding; higher % means a stronger effect; test concentration not given here; strong numbers were not always called active. Virion infectivity factor (Human immunodeficiency virus type 1 group M subtype B (isolate …;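 active = above the screen mean plus three standard deviations and confirmed in dose response; inconclusive = results disagree or hit not tested in dose response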;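 note: Vif residues 1-94 fused to GST binding biotinylated APOBEC3G peptide 110-148; 0% = full assay without inhibitor and 100% = GST in place of GST-Vif; retest series ran down from 100 µM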
E coli growth – E. coli growth inhibition, primary screen, OD600; 330,000 compounds, 0.21% hits; OD600 absorbance (no concentration beside the values); AID 1053175, 2014; Escherichia coli growth, 23 h; stronger effect = lower value;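 active = OD600 absorbance below the run mean of sample wells minus 3.6 SD, in any replicate, cut at about 0.56 in these data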;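 note: stock transfer was 300 nL into about 60 µL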
UCH37 inh – inhibitors of human UCH37 deubiquitinase, primary screen, biochemical, Ub-AMC cleavage, fluorescence | inhibition, % (no concentration beside the values) | 330,000 compounds, 0.33% hits | purified proteasome/UCH37 | Ubiquitin carboxyl-terminal hydrolase isozyme L5 (Homo sapiens), Q9Y5K5 | AID 588478, 2011;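 active = mean of two replicates above 20%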;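 note: 0% = compound-free wells with enzyme and 100% = wells lacking proteasome; stock transfer was 100 nL into about 20 µL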
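Assay system: Proteasome-bound UCH37. Buffer or medium: pH 7.4 Tris-HCl (50 mM) with ovalbumin, ATP-MgCl2, DTT. Incubation: 30 min preincubation with enzyme, 25 min cleavage at room temperature. Measured by: fluorescence, ex 355 nm, em 460 nm. Read-out basis: percent inhibition. Control set: wells without proteasome as full block, compound-free enzyme plus substrate as uninhibited.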
The depositor's hits bear a star; ? = inconclusive; . = no result given; & = joins results of further samples. Compounds as they come. About 2.1% of those tested had a hit in this group.

SMILES	Beta2AR agonist	HNF4A DNA FP	LANA-H2A inh	A1 inh	Vif TR-FRET	E coli growth	UCH37 inh
Cc1nnc(C)c2c(C)n(-c3ccccc3)c(C)c12	8	3.4	.	.	19%	0.69	-13
O=C(CSc1nnc(CNC(=O)c2c(F)cccc2F)o1)Nc1ccc2c(c1)OCO2	3	-0.2	1.7	0.7	.	0.68	0.1
CC(C)(C)c1ccc(OCC(=O)NNC(=S)NC(=O)c2ccco2)c(Br)c1	4	0.8	3.9	1.8	.	0.73	2.9
CC1(c2ccc(OC(F)F)cc2)NC(=O)N(CC(=O)Nc2ccc(N3CCCCC3)cc2)C1=O (stereo unspecified)	-1	2.4	-1.4	-0.4	-1%	0.73	0.6
CCCCc1nnc2c(N(C)S(=O)(=O)c3ccc(C)cc3)nc3ccccc3n12	-9	-1.2	-0.5	-0.7	-15%	0.66	0.0
CN(C)N1C(N)=C(C#N)C(c2cccs2)C2=C1CC(C)(C)CC2=O (stereo unspecified)	-4	1.1	-1.5	0.8	5%	0.67	5.8
COC(=O)c1cc(OC)cc(O)c1C(=O)c1c(O)cc(C)cc1O	6	3.3	8.4	-0.5	.	0.74	3.9
Cc1cccc(NC(=O)Cn2cc(C(=O)C3CC3)c3ccccc32)c1C	-12	0.1	7.7	1.0	6%	0.62	-3.3
Fc1ccc(N2CN(Cc3cccnc3)CNC2=S)cc1	2	2.9	1.3	0.2	-5%	0.65	0.9
COc1ccc(-c2[nH]ncc2CN2CCC(N3CCSCC3)CC2)cc1F	-2	-1.9	4.4	-0.5	-1%	0.72	4.8
CCOC(=O)c1c(NC(=O)c2c(Br)cnn2CC)sc(C)c1C	-1	-2.0	-3.8	0.5	-1%	0.7	-57
c1cncc(-c2nnc(C3CCCCC3)o2)c1	-8	-1.1	-1.2	-0.4	-2%	0.71	2.9
O=C(CN(C(=O)CNS(=O)(=O)c1ccc(F)cc1)c1ccccc1F)NCc1ccco1	-1	0.9	1.0	-0.6	.	0.69	0.2
CCOC(=O)C1CCCN(S(=O)(=O)c2ccc3c4c(cccc24)C(=O)N3CC)C1 (stereo unspecified)	10	0.1	-0.7	0.5	3%	0.71	-229
O=C(C1CCCN1C(=O)c1cccs1)N1CCN(S(=O)(=O)c2ccc(F)cc2)CC1 (stereo unspecified)	-2	-3.0	-1.4	1.7	.	0.64	1.4
Cc1cc(C(=O)CN2C(=O)C(=O)N(C3CCCC3)C2=O)c(C)n1CCc1ccc(F)cc1	-4	-0.8	.	.	-5%	0.67	3.7
O=C(NC(C(=O)c1ccccc1)n1cnccc1=O)c1ccccc1 (stereo unspecified)	0	-0.6	2.9	-0.9	3%	0.71	0.2
CCn1c(N)c(C(N)=O)sc1=S	2	-0.9	-2.0	0.0	-2%	0.67	0.8
O=C(NCC(c1ccco1)N1CCN(c2ccccc2F)CC1)C(=O)NC1CC1 (stereo unspecified)	-1	2.2	-3.9	-0.1	3%	0.68	2.2
CCN(c1ccccc1)S(=O)(=O)c1ccc(C(C(=O)OC)C(=O)OC)c([N+](=O)[O-])c1	4	-1.0	-4.3	0.2	4%	0.69	4.4
Cc1nnc(SCC(=O)NC2CCCCCC2)n1N	-2	3.0	-1.8	-0.4	1%	0.65	1.3
CSC1=N/C(=C/c2cccnc2)C(=O)N1Cc1ccc(Cl)cc1	-17	2.5	-1.8	0.7	-13%	0.66	-20
COc1cccc(-c2cc(C(=O)NCCCn3ccnc3)c3ccccc3n2)c1	-15	1.5	1.9	0.4	16%	0.69	3.2
O=C(NCCS(=O)(=O)NCCCc1ccccc1)c1ccccc1	1	-0.1	-1.1	0.5	-3%	0.69	3.3
CCC(C)NC(=O)C1CCCN(C(=O)NC2CCCCC2)C1 (stereo unspecified)	6	2.3	3.0	0.2	8%	0.69	0.7

Additional structures follow:
SMILES	Beta2AR agonist	HNF4A DNA FP	LANA-H2A inh	A1 inh	Vif TR-FRET	E coli growth	UCH37 inh
O=C1NC(=O)C2(C=C(c3ccccc3)C(O)(c3ccccc3)C2)N1 (stereo unspecified)	-1	3.2	.	.	4%	0.69	2.9
CCCCC(C(=O)NC1CCCC1)N(C(=O)c1snc(C(N)=O)c1N)c1ccc(F)cc1 (stereo unspecified)	-5	2.1	0.8	0.5	1%	.	.
CC1(OC(=O)c2ccc(Cl)nc2)C(=O)C=C2C=C3CCCN3C=C2C1=O (stereo unspecified)	-11	-19	0.0	0.7	.	0.72	5.2
Cc1cc(-c2csc(NC(=O)C3=COCCO3)n2)c(C)n1C	9	2.0	-1.6	-1.1	.	.	.
Cc1ccc(NC(=O)c2c([N+](=O)[O-])c(C(C)(C)C)nn2C)cc1	-2	-3.1	-0.4	2.4	.	0.67	3.2
O=C(Cn1cnc2ccccc21)NCc1ccccc1	8	-1.6	3.5	-0.3	2%	0.63	5.5
Cc1cc(C(=O)CSc2nnnn2-c2ccc(O)cc2)c(C)n1Cc1ccc2c(c1)OCO2	7	10	1.3	2.0	11%	0.7	4.7
CCc1ccc(C(=O)COC(=O)CNC(=O)C2CCCCC2)cc1	2	-0.2	.	.	11%	0.65	3.2
NC(=O)NC(Cc1ccccc1)C(=O)NNC(=O)COc1ccccc1Cl (stereo unspecified)	-5	0.3	2.4	0.4	-9%	0.66	4.7
C=CCc1ccccc1OCC(O)CNC (stereo unspecified)	-39	-3.6	-3.6	-0.1	-2%	0.69	1.0
CCCCN(C)C(=O)c1cc2cc3cc(OC)ccc3nc2o1	5	1.8	1.2	-0.5	7%	0.69	-301
CCC(Oc1ccccc1)C(=O)N1CCN(S(=O)(=O)c2ccccc2)CC1 (stereo unspecified)	-3	5.9	-2.8	0.1	.	.	.
O=C1CSC(c2ccccc2)N1CC(O)c1ccc([N+](=O)[O-])cc1 (stereo unspecified)	-1	1.9	1.0	0.6	-8%	0.69	1.8
CN(NC(=S)Nc1ccc(OC(F)F)cc1)C(=S)Nc1ccc(OC(F)F)cc1	11	-6.0	-2.4	0.2	8%	0.7	2.4
COC(=O)C1=NN(C(=O)c2ccc(Cl)cc2)C(O)(c2ccccc2)C1 (stereo unspecified)	4	6.5	0.8	0.1	6%	0.69	0.8
COCCNC(=S)N/N=C(\C)c1ccc(Cl)s1	5	-0.4	5.3	0.8	24%	.	.
CCCCN(C(=O)C1CC(=O)N(c2ccc3c(c2)OCCO3)C1)c1c(N)n(CCCC)c(=O)[nH]c1=O (stereo unspecified)	-2	-4.6	25*	1.1	.	0.7	-1.5
Cc1ccc(-c2csnn2)cc1	-4	-1.8	7.8	0.4	-4%	0.67	5.1
O=[N+]([O-])c1cc(-c2nnc(C34CC5CC(CC(C5)C3)C4)o2)cc([N+](=O)[O-])c1	-18	-0.6	3.9	0.0	28%	0.68	1.3
Cc1ccc(Cl)c(Nc2ccccc2C(=O)O)c1Cl	-3&-1	1.4&4.9	-24	.	?	0.69&0.67	2.5&4.3
CN1CCN(C(=O)CNC(=O)C23CC4CC(CC(C4)C2)C3)CC1	7	0.2	-1.9	-0.6	.	0.65	-0.4
CCCN(CCC)Cc1c(C(=O)N/N=C/c2ccc(C)o2)nnn1-c1nonc1N	0	1.2	5.1	1.4	.	.	.
Cc1ccc(Cl)c(OCC(=O)Nc2ccccc2N2CCCCC2)c1	-8	-3.3	4.7	0.1	7%	0.72	-9.5
COc1ccc(Cl)cc1NC(=O)CCn1c(=O)oc2ccccc21	5	-0.3	0.7	0.0	.	.	.
COc1cc2nc(/C=C/c3cc(OC)c(OC)c(OC)c3)sc2cc1SC	17	19	8.0	-0.3	.	0.71	-202

(continued)
SMILES	Beta2AR agonist	HNF4A DNA FP	LANA-H2A inh	A1 inh	Vif TR-FRET	E coli growth	UCH37 inh
O=C(Nc1cccc(NC(=O)C2CC3CCCC(C2)C3=O)n1)C1CC2CCCC(C1)C2=O (stereo unspecified)	10	3.6	0.9	0.2	18%	0.81	-1.3
CCC(=O)N1CCc2cc(S(=O)(=O)NCCC(=O)NCc3ccccc3OC)ccc21	-5	2.6	-0.4	0.4	.	0.63	2.9
O=C(O)c1cc(=O)c2c(Cl)cc(Cl)cc2[nH]1	-4	0.8	2.1	0.4	.	0.71	1.6
COc1ccc(N2C(S)=C(C#N)C(=O)NC2c2ccc(OC)c(OC)c2)cc1 (stereo unspecified)	1	5.4	0.5	-0.2	.	0.69	10
O=C(CCC(=O)c1cccs1)NCc1ccc(Cl)cc1	-8	3.4	5.1	0.2	2%	0.8	0.9
COc1ccc(OC)c(S(=O)(=O)N(C)CC(=O)N2CCCCC2)c1	1	2.8	-5.6	1.5	.	0.67	0.9
COc1ccc(C(=S)N2CCCC2)cc1Br	-4	-0.7	-4.7	-1.1	9%	0.65	2.7
N#Cc1cnn(-c2nc3sc4c(c3c(=O)[nH]2)CCCC4)c1N	3	-1.6	4.5	-5.1	5%	0.71	-17
CC(C)N(C(=O)COC(=O)c1cccc(S(=O)(=O)N2CC3(C)CC2CC(C)(C)C3)c1)C(C)C (stereo unspecified)	8	-0.8	.	.	6%	0.71	4.7
COc1cc(Br)cc(/C=N/NC(=O)Cc2ccc(C(F)(F)F)cc2[N+](=O)[O-])c1O	4	1.1	4.0	-0.1	19%	.	.
CCCCN(C)CCNC(=O)c1nn(-c2ccc(OC)cc2)c(=O)c2c1c1ccccc1n2C	14	4.6	0.6	-0.1	.	0.67	-8.7
Cc1cc(N/N=C/c2ccc(O)cc2)nc(NS(=O)(=O)c2ccccc2)n1	-3	-10	0.9	0.0	?	.	.
COc1ccc(CN2CCN(C(=O)CC(C)C)CC2)cc1Br	1	3.1	-1.9	0.1	.	0.63	1.1
COc1ccc(C(c2sc3nc(C)nn3c2O)N2CCN(CCO)CC2)cc1OC (stereo unspecified)	4	-0.2	1.7	-0.3	-5%	0.75	4.1
CSCCC(NC(=O)c1ccc(Cl)cc1Cl)C(=O)NCc1ccccn1 (stereo unspecified)	-6	-7.4	-3.2	0.1	.	0.7	1.2
CC1(C)Cc2c(sc(NC(=O)C(=O)N3CCOCC3)c2C#N)CO1	0	-0.8	0.2	1.2	7%	0.69	7.0
COc1cc(CC(NC(C)=O)C(=O)NC2CCN(c3nc(C)cc(C)c3C#N)CC2)cc(OC)c1 (stereo unspecified)	-7	-0.1	.	-0.1	?	0.71	-31
CC(Oc1ccc2c(-c3ccccc3)cc(=O)oc2c1)C(=O)NCCCn1ccnc1 (stereo unspecified)	-15	1.2	-10	-0.8	.	0.78	3.0

Arranged by the number under A1 inh (ascending): 3 of the compounds above
structure | A1 inh
CC(Oc1ccc2c(-c3ccccc3)cc(=O)oc2c1)C(=O)NCCCn1ccnc1 (stereo unspecified) | -0.8
COc1ccc(CN2CCN(C(=O)CC(C)C)CC2)cc1Br | 0.1
CCC(=O)N1CCc2cc(S(=O)(=O)NCCC(=O)NCc3ccccc3OC)ccc21 | 0.4
